Screens (PubChem BioAssay)
MLL AF4-AF9 inh = blocks AF4 peptide binding to human AF9 | P42568 | AlphaScreen, biotin-AF4 peptide binding to FLAG-AF9 | inhibition, % at 10 µM | hit rate 0.47% among 350,000 | AID 651704;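 active means every replicate reaching a set inhibition limit, whatever the replicate mean, cut at about 25% in these data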;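 further: 0% = plate neutral control median and 100% = total signal loss; the record names both 10 and 1 µM as test concentration; the first replicate is given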
Target sequence (P42568 whole entry, looked up): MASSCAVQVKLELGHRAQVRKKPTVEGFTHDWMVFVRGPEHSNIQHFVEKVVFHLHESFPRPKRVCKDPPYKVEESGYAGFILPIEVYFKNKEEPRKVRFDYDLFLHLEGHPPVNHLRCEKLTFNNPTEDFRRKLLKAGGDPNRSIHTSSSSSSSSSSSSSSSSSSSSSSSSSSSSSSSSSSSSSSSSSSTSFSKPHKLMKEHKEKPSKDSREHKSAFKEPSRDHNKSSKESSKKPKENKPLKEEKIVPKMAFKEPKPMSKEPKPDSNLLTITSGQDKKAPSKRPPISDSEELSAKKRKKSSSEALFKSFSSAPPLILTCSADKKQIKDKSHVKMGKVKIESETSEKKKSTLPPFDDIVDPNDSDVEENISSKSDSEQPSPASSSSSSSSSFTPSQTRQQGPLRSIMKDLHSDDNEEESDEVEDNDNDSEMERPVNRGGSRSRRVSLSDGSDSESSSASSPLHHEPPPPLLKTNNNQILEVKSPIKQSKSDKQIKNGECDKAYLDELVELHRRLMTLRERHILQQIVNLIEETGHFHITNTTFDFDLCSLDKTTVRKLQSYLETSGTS
rRNA inh HTS = selective bacterial rRNA inhibition in E. coli; E. coli WT GFP vs humanized-ribosome RFP mutants, fluorescence, 24 h; active compounds read low; DMSO median 0, no signal -100; GFP signal change (wild-type ribosome), % (concentration not given with the values); hit rate 1.6% among 350,000;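 active means significant combined selectivity score with lowered wild-type GFP, culture density cut under 30%, mutant RFP and density less affected; inactive means any of these conditions unmet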; further: one replicate is shown; some compounds called inactive have numbers as strong as hits
rRNA inh HTS OD600 = further read-out of rRNA inh HTS, marked with its call; OD600 change, %; measured here: OD600 growth;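 optical density of the mix in the first replicate; 0 = DMSO median and -100 = no signal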
rRNA inh HTS RFP = second read-out of rRNA inh HTS, no call of its own (marks repeat the call); RFP signal change, %; measured here: RFP humanized mutant strains;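 first replicate; 0 = DMSO median and -100 = no signal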
An asterisk follows results filed as active.

Cc1noc(C)c1NC(=O)Nc1ccc2c(c1)C(=O)N([C@@H](C)CO)C[C@H](C)[C@@H](CN(C)C)OCCCC[C@@H](C)O2 was read as MLL AF4-AF9 inh -5.4, rRNA inh HTS 3, rRNA inh HTS OD600 10 and rRNA inh HTS RFP 0.3.
Screening COc1ccc(NC(=O)Nc2ccc3c(c2)[C@@H]2C[C@@H](CC(=O)N(C)C)O[C@H](CO)[C@@H]2O3)cc1 returned MLL AF4-AF9 inh 0.0, rRNA inh HTS 1, rRNA inh HTS OD600 10 and rRNA inh HTS RFP 0.3.
Screening CO[C@H]1CN(C)C(=O)c2cc(NC(=O)C3CCC3)ccc2OC[C@@H](C)N(Cc2ccc(F)cc2)C[C@H]1C returned MLL AF4-AF9 inh 3.1, rRNA inh HTS 3, rRNA inh HTS OD600 -2 and rRNA inh HTS RFP 0.1.
Screening C[C@@H]1CN([C@H](C)CO)C(=O)c2cc(NC(=O)C3CCCCC3)ccc2O[C@@H](C)CCCCO[C@H]1CN(C)Cc1ccc(C(=O)O)cc1 returned MLL AF4-AF9 inh -1.7, rRNA inh HTS 5, rRNA inh HTS OD600 0 and rRNA inh HTS RFP -0.7.
Screening CCc1nc2ccc(C(=O)Nc3cccc(OCC(=O)N(C)C)c3)cn2c1N(C)Cc1ccc(N(C)C)cc1 returned MLL AF4-AF9 inh 15, rRNA inh HTS -5, rRNA inh HTS OD600 4 and rRNA inh HTS RFP -1.3.
`CN(C)CC(=O)N1[C@H](CO)[C@@H](c2ccccc2-c2ccccc2F)[C@@H]1C#N` gave MLL AF4-AF9 inh -0.8, rRNA inh HTS 5, rRNA inh HTS OD600 -4 and rRNA inh HTS RFP -1.2.
`COc1ccc(CN(C)C[C@H]2OCCCC[C@H](C)Oc3ccc(NC(=O)CCC(F)(F)F)cc3C(=O)N([C@H](C)CO)C[C@@H]2C)cc1` gave MLL AF4-AF9 inh -2.6, rRNA inh HTS 1, rRNA inh HTS OD600 0 and rRNA inh HTS RFP -0.8.
Screening CCCC#Cc1ccc2c(c1)O[C@@H](CN(C)C(=O)Nc1ccc(OC)cc1)[C@H](C)CN([C@@H](C)CO)S2(=O)=O returned MLL AF4-AF9 inh 0.5, rRNA inh HTS -28, rRNA inh HTS OD600 -59 and rRNA inh HTS RFP -9.4.
COc1ccc(OC)c(NC(=O)CN2C(=O)NC3(CCCc4ccccc43)C2=O)c1 (configuration not stated) was read as MLL AF4-AF9 inh 0.9, rRNA inh HTS -15, rRNA inh HTS OD600 -8 and rRNA inh HTS RFP -3.4.
For COCC(=O)N(C)C[C@H]1Oc2ncc(-c3cccc(OC)c3)cc2C(=O)N([C@H](C)CO)C[C@H]1C the results were MLL AF4-AF9 inh 0.5, rRNA inh HTS 5, rRNA inh HTS OD600 1 and rRNA inh HTS RFP -3.3.
C[C@H]1CN([C@@H](C)CO)C(=O)Cc2cc(NC(=O)Nc3ccc4c(c3)OCO4)ccc2O[C@H]1CN(C)Cc1ccc(C(F)(F)F)cc1 was read as MLL AF4-AF9 inh 3.7, rRNA inh HTS -8, rRNA inh HTS OD600 -21 and rRNA inh HTS RFP -0.3.
For COCC(=O)N1C[C@@H]2[C@H](c3ccccc31)[C@@H](CO)N2C(=O)C1CC1 the results were MLL AF4-AF9 inh -0.9, rRNA inh HTS -8, rRNA inh HTS OD600 -7 and rRNA inh HTS RFP 1.1.
Screening COc1ccccc1C#Cc1ccc2c(c1)O[C@H](CN(C)C(C)=O)[C@@H](C)CN([C@@H](C)CO)S2(=O)=O returned MLL AF4-AF9 inh -1.8, rRNA inh HTS -7, rRNA inh HTS OD600 -23 and rRNA inh HTS RFP 2.5.
Screening O=C(C1CC1)N1CC(=O)N2[C@H](CO)[C@@H](c3ccc(C#CC4CCCC4)cc3)[C@@H]2C1 returned MLL AF4-AF9 inh 1.7, rRNA inh HTS 2, rRNA inh HTS OD600 -43 and rRNA inh HTS RFP 21.
Screening CO[C@H]1CN(C)C(=O)c2cc(NC(=O)NC3CCCCC3)ccc2OC[C@H](C)N(C(C)=O)C[C@H]1C returned MLL AF4-AF9 inh 1.2, rRNA inh HTS -1, rRNA inh HTS OD600 0 and rRNA inh HTS RFP -1.8.
Cc1ccc(S(=O)(=O)Nc2c(C)n(C)n(-c3ccccc3)c2=O)cc1C(=O)OC(C)C(=O)c1ccccc1 (configuration not stated) was read as MLL AF4-AF9 inh 2.4, rRNA inh HTS 1, rRNA inh HTS OD600 10 and rRNA inh HTS RFP 1.4.
`C/C=C/c1ccc([C@@H]2[C@@H](CO)N3CCCCN(C(=O)Nc4ccc(OC)cc4)C[C@H]23)cc1` gave MLL AF4-AF9 inh 4.6, rRNA inh HTS 0, rRNA inh HTS OD600 10 and rRNA inh HTS RFP 4.9.
`C[C@H](CO)N1C[C@H](C)[C@@H](CN(C)Cc2ccc3c(c2)OCO3)Oc2c(NS(=O)(=O)c3ccccc3)cccc2C1=O` gave MLL AF4-AF9 inh -0.1, rRNA inh HTS -1, rRNA inh HTS OD600 -5 and rRNA inh HTS RFP -0.8.
`CN(C)Cc1cn(CC[C@@H]2CC[C@H](NS(=O)(=O)c3ccccc3)[C@@H](CO)O2)nn1` gave MLL AF4-AF9 inh -1.9, rRNA inh HTS 2, rRNA inh HTS OD600 5 and rRNA inh HTS RFP 1.0.
`Cc1ccc(S(=O)(=O)N(C)C[C@H]2Oc3cc(C4=CCCC4)ccc3S(=O)(=O)N([C@@H](C)CO)C[C@@H]2C)cc1` gave MLL AF4-AF9 inh 1.7, rRNA inh HTS -5, rRNA inh HTS OD600 -4 and rRNA inh HTS RFP 0.2.
C[C@@H]1CN([C@H](C)CO)C(=O)c2cc(NC(=O)Nc3ccc(F)cc3)ccc2O[C@@H]1CN(C)Cc1ccc2c(c1)OCO2 was read as MLL AF4-AF9 inh 6.7, rRNA inh HTS -6, rRNA inh HTS OD600 -7 and rRNA inh HTS RFP 6.5.
`CC=Cc1ccc2n(c1=O)C[C@@H]1[C@@H](CO)[C@H](C(=O)NCc3ccc4c(c3)OCO4)[C@H]2N1C(=O)CC` (mixture of isomers) gave MLL AF4-AF9 inh -0.7, rRNA inh HTS 2, rRNA inh HTS OD600 4 and rRNA inh HTS RFP -3.0.
O=C(c1ccccc1)N1C[C@@H]2[C@H](c3ccccc31)[C@H](CO)N2C(=O)c1ccccn1 was read as MLL AF4-AF9 inh -2.8, rRNA inh HTS -1, rRNA inh HTS OD600 -5 and rRNA inh HTS RFP 0.9.
For CN(C)C(=O)c1ccc(NC(=O)c2cccc(S(=O)(=O)N3CCN(Cc4ccccc4)CC3)c2)cc1 the results were MLL AF4-AF9 inh 3.4, rRNA inh HTS 3, rRNA inh HTS OD600 -4 and rRNA inh HTS RFP 6.1.
CC(C)NC(=O)N1[C@@H](CO)[C@@H](c2ccccc2)C12CN(Cc1cc(F)cc(F)c1)C2 was read as MLL AF4-AF9 inh 2.8, rRNA inh HTS -12, rRNA inh HTS OD600 -30 and rRNA inh HTS RFP -3.0.
O=C(Nc1cccc(C(=O)N2CCCC2)c1)C1CC1 was read as MLL AF4-AF9 inh -0.7, rRNA inh HTS 6, rRNA inh HTS OD600 5 and rRNA inh HTS RFP 0.3.
`Cc1ccc2nc(-c3ccccc3)c(Cc3cccc(F)c3)n2c1` gave MLL AF4-AF9 inh -1.5, rRNA inh HTS -44, rRNA inh HTS OD600 -66 and rRNA inh HTS RFP -14.
Screening CN(C)CC(=O)N1[C@H](CO)[C@H](c2ccccc2)C12CN(C(=O)c1ccccc1)C2 returned MLL AF4-AF9 inh -1.1, rRNA inh HTS 4, rRNA inh HTS OD600 10 and rRNA inh HTS RFP 0.5.
`COc1ccc(NC(=O)c2cc(-c3cc(Cl)ccc3OC)n[nH]2)c(C)c1` gave MLL AF4-AF9 inh -2.0, rRNA inh HTS -15, rRNA inh HTS OD600 -47 and rRNA inh HTS RFP -3.2.
`Cc1nc2c(OCCOc3ccc(F)cc3)cccn2c1N(C)C(=O)CCC1CCCC1` gave MLL AF4-AF9 inh 4.6, rRNA inh HTS -40, rRNA inh HTS OD600 -63 and rRNA inh HTS RFP 2.6.
Screening C[C@H]1CN([C@@H](C)CO)C(=O)Cc2cc(NC(=O)Nc3cccc4ccccc34)ccc2O[C@H]1CN(C)C(=O)Nc1ccc(F)cc1 returned MLL AF4-AF9 inh 4.0, rRNA inh HTS -5, rRNA inh HTS OD600 -6 and rRNA inh HTS RFP 2.8.
Screening CCCNC(=O)N1[C@H](CO)[C@@H]2c3ccccc3N(C(=O)NC(C)C)C[C@@H]21 returned MLL AF4-AF9 inh -3.2, rRNA inh HTS 6, rRNA inh HTS OD600 22 and rRNA inh HTS RFP 0.2.
For O=C(C[C@@H]1C[C@@H]2c3cc(NS(=O)(=O)c4ccc(F)cc4)ccc3O[C@@H]2[C@H](CO)O1)NCc1ccc(Cl)cc1 the results were MLL AF4-AF9 inh -1.1, rRNA inh HTS -4, rRNA inh HTS OD600 1 and rRNA inh HTS RFP -1.3.
For COCC(=O)N(C)C[C@@H]1Oc2ncc(C#Cc3ccccc3)cc2C(=O)N([C@H](C)CO)C[C@@H]1C the results were MLL AF4-AF9 inh -1.6, rRNA inh HTS 3, rRNA inh HTS OD600 12 and rRNA inh HTS RFP -1.6.
Screening CC(C)(C)c1ccc(S(=O)(=O)NCC2CCN(C(=O)C(=O)c3cccs3)CC2)cc1 returned MLL AF4-AF9 inh 1.0, rRNA inh HTS -18, rRNA inh HTS OD600 -23 and rRNA inh HTS RFP 3.8.
CNC[C@H]1Oc2ncc(-c3ccc(C)cc3)cc2C(=O)N([C@@H](C)CO)C[C@H]1C was read as MLL AF4-AF9 inh 5.6, rRNA inh HTS -3, rRNA inh HTS OD600 19 and rRNA inh HTS RFP -1.8.
For COc1cccc(NC(=O)Nc2ccc3c(c2)C(=O)N(C)C[C@H](OC)[C@H](C)CN(CC2CC2)[C@H](C)CO3)c1 the results were MLL AF4-AF9 inh 4.8, rRNA inh HTS 0, rRNA inh HTS OD600 11 and rRNA inh HTS RFP -0.6.
Screening CCCC#Cc1ccc([C@@H]2[C@H](CO)N3C(=O)CN(C(=O)Nc4ccc(F)cc4)C[C@@H]23)cc1 returned MLL AF4-AF9 inh 1.3, rRNA inh HTS 4, rRNA inh HTS OD600 -50 and rRNA inh HTS RFP 21.
For C[C@@H]1CN([C@@H](C)CO)C(=O)c2cccc(NC(=O)Nc3ccc(F)cc3)c2O[C@H]1CN(C)C(=O)Nc1ccccc1 the results were MLL AF4-AF9 inh -1.3, rRNA inh HTS -1, rRNA inh HTS OD600 0 and rRNA inh HTS RFP 0.4.
For CC(C)C[C@H]1CN(CCCC[C@@H]2CNC(=O)C(=O)N2CC2CCCCC2)C(=O)C(=O)N1Cc1ccccc1 the results were MLL AF4-AF9 inh -1.5, rRNA inh HTS -13, rRNA inh HTS OD600 -32 and rRNA inh HTS RFP -0.1.
`CO[C@H]1CN(C)C(=O)c2ccc(NC(C)=O)cc2OC[C@H](C)N(CC2CCCCC2)C[C@H]1C` gave MLL AF4-AF9 inh 4.1, rRNA inh HTS -1, rRNA inh HTS OD600 3 and rRNA inh HTS RFP -0.9.
CCCCN(C=O)c1c(CC)nc2ccc(C(=O)N(CC)CCN(C)C)cn12 was read as MLL AF4-AF9 inh 1.4, rRNA inh HTS 6, rRNA inh HTS OD600 15 and rRNA inh HTS RFP -12.
`C[C@H](CO)N1C[C@H](C)[C@H](CN(C)Cc2ccc3c(c2)OCO3)OCc2ccccc2-c2ccccc2C1=O` gave MLL AF4-AF9 inh 5.8, rRNA inh HTS -8, rRNA inh HTS OD600 -3 and rRNA inh HTS RFP -4.2.
`CCN(CC)c1ncnc2c1ncn2[C@H]1CN(Cc2ccc(-c3ccccc3)cc2)C[C@@H](CO)O1` gave MLL AF4-AF9 inh 2.8, rRNA inh HTS -13, rRNA inh HTS OD600 -7 and rRNA inh HTS RFP 3.8.
Cc1cccc(NC(=O)c2cccc(S(=O)(=O)N(C)c3ccccc3)c2)n1 was read as MLL AF4-AF9 inh 2.1, rRNA inh HTS -38, rRNA inh HTS OD600 -40 and rRNA inh HTS RFP -8.4.
O=C(C[C@@H]1CC[C@H]2[C@@H](COC[C@@H](O)CN2C(=O)Nc2cc(Cl)cc(Cl)c2)O1)N1CCOCC1 was read as MLL AF4-AF9 inh -0.5, rRNA inh HTS -50, rRNA inh HTS OD600 -60 and rRNA inh HTS RFP 7.9.

Looked up by structure from the entries so far (4):
`CO[C@H]1CN(C)C(=O)c2ccc(NC(C)=O)cc2OC[C@H](C)N(CC2CCCCC2)C[C@H]1C` gave MLL AF4-AF9 inh 4.1, rRNA inh HTS -1, rRNA inh HTS OD600 3 and rRNA inh HTS RFP -0.9.
Screening CCCC#Cc1ccc([C@@H]2[C@H](CO)N3C(=O)CN(C(=O)Nc4ccc(F)cc4)C[C@@H]23)cc1 returned MLL AF4-AF9 inh 1.3, rRNA inh HTS 4, rRNA inh HTS OD600 -50 and rRNA inh HTS RFP 21.
For CC(C)C[C@H]1CN(CCCC[C@@H]2CNC(=O)C(=O)N2CC2CCCCC2)C(=O)C(=O)N1Cc1ccccc1 the results were MLL AF4-AF9 inh -1.5, rRNA inh HTS -13, rRNA inh HTS OD600 -32 and rRNA inh HTS RFP -0.1.
Cc1cccc(NC(=O)c2cccc(S(=O)(=O)N(C)c3ccccc3)c2)n1 was read as MLL AF4-AF9 inh 2.1, rRNA inh HTS -38, rRNA inh HTS OD600 -40 and rRNA inh HTS RFP -8.4.

The list is partial. The share of hits here may be higher or lower than overall.
